Calb FLC: C. albicans growth modulation with fluconazole; growth inhibition, % (no concentration beside the values); C. albicans CaCi-2 (fluconazole-resistant clinical isolate) + fluconazole, Alamar Blue growth, 48 h; AID 1979; 300,000 compounds, 0.57% hits;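 active = most replicates above 75%; inconclusive = exactly half above 75%; inactive = most below 75%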;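 also: all wells also contain fluconazole at 8 µg/ml as a sub-toxic cotreatment; 0% = median of DMSO wells and 100% = median of geldanamycin control wells; wells of about 8 µL received 7.5 nL stock; the first replicate is given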
T cruzi inh: T. cruzi replication inhibition; inhibition, % (concentration not given with the values); T. cruzi beta-gal in NIH3T3, luminescence, 90 h; AID 1885; 300,000 compounds, 1.4% hits;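 active = mean inhibition across valid replicates above about 55%, limit read from the data; inconclusive = mean below that limit but half or more replicates reach it; inactive = mean below it, under half of replicates reach it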;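 also: signal also drops with host cell toxicity which is not excluded here; 0% = plate median of DMSO wells and 100% = zero luminescence signal; higher percent means less beta-gal luminescence so fewer parasites; stock transfer was 50 nL into about 50 µL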
ALR H2O2 inh: inhibitors of human sulfhydryl oxidase ALR; 290,000 compounds, 3.8% hits; inhibition, % (test concentration not listed); purified ALR, DTT oxidation, H2O2 HRP-luminol luminescence; AID 485317; P55789;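 active = mean and each replicate at 75% or more; inconclusive = only one of the two met; inactive = neither met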;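 also: stock transfer was 7.5 nL into about 7.5 µL; 0% = neutral wells and 100% = wells with inactivated enzyme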
Target sequence (P55789 whole entry, looked up): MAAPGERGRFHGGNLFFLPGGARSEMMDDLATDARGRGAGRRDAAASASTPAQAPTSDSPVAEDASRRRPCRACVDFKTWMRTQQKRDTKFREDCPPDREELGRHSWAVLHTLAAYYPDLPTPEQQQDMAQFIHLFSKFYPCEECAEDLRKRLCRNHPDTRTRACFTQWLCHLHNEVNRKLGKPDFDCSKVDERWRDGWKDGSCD
RanGTP-Imp inh: disruptors of Ran-importin-beta complex formation – biochemical, FRET, CFP-Ran, YFP-importin-beta, homogeneous, primary screen; cell-free CFP-Ran/YFP-importin-beta FRET ratio; inhibition, % (test concentration not listed); AID 2216; 300,000 compounds, 1.1% hits;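 active = most replicates above 15%; inconclusive = exactly half above 15%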;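 also: 0% = DMSO wells and 100% = Ran loaded with GDP instead of GTP; wells of about 40 µL received 100 nL stock; the first replicate is given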
Beta cell apopt: blocks beta cell apoptosis; 300,000 compounds, 0.8% hits; INS-1E cytokine-induced death, ATP luminescence, 48 h; percent of positive-control rescue, neutral wells zero; protection from apoptosis, % (test concentration not listed); AID 435005;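 active = all replicates at 75% or more, or half of them and the mean; inconclusive = half reach 75% but not the mean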;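 also: 0% = cytokine-treated negative control wells and 100% = positive control rescue; higher means more ATP so stronger rescue from cytokine killing; wells of about 40 µL received 100 nL stock; the first replicate is given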
AF4-AF9 inh: inhibitors of human MLL-AF4/AF9 interaction | 350,000 compounds, 0.47% hits | AlphaScreen, biotin-AF4 peptide binding to FLAG-AF9 | inhibition, % at 10 µM | AID 651704 | P42568;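 active = every replicate reaching a set inhibition limit, whatever the replicate mean, cut at about 25% in these data; inconclusive = mean inhibition reaches that limit but some replicates miss it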;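 also: 0% = plate neutral control median and 100% = total signal loss; the record names both 10 and 1 µM as test concentration; the first replicate is given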
Target sequence (P42568 whole entry, looked up): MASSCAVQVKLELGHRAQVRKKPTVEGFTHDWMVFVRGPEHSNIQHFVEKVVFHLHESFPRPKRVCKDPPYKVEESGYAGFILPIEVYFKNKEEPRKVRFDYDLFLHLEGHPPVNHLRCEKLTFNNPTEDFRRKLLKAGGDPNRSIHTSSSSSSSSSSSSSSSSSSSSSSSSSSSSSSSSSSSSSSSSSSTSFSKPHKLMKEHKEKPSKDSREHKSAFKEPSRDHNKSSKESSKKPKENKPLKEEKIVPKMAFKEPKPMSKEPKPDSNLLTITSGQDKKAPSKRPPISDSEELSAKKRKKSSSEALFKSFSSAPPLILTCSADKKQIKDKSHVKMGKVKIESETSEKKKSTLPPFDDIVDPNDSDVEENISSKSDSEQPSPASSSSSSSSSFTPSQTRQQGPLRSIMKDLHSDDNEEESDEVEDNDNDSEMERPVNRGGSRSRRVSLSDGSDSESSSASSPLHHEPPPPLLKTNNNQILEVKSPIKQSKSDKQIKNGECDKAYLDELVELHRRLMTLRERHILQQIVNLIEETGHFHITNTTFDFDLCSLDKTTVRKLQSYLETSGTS
rRNA inh HTS: selective bacterial rRNA inhibition in E. coli. GFP signal change (wild-type ribosome), % (concentration not given with the values). 350,000 compounds, 1.6% hits. E. coli WT GFP vs humanized-ribosome RFP mutants, fluorescence, 24 h; active compounds read low; DMSO median 0, no signal -100;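 active = significant combined selectivity score with lowered wild-type GFP, culture density cut under 30%, mutant RFP and density less affected; inactive = any of these conditions unmet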; also: one replicate is shown; some compounds called inactive have numbers as strong as hits
FGF22 binding: shifts melting point of recombinant human FGF22. Q9HCT0. recombinant FGF22 thermal shift, SYPRO orange fluorescence; percent of sucrose octasulfate shift, DMSO zero. calls only at 9.99 µM. 340,000 compounds, 1.5% hits. AID 651658;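 active = melting point raised past a set limit in the mean and every replicate; inconclusive = no clear call; three in four hits are not shown here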
Target sequence (Q9HCT0 whole entry, looked up): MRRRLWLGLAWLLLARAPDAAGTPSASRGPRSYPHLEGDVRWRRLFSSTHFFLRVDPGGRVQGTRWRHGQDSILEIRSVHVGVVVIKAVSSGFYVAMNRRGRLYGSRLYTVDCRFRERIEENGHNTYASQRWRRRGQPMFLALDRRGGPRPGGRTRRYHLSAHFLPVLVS
rRNA inh HTS OD600: also measured in rRNA inh HTS; calls as there; OD600 change, %; measured here: OD600 growth;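 optical density of the mix in the first replicate; 0 = DMSO median and -100 = no signal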
rRNA inh HTS RFP: further read-out of rRNA inh HTS, marked with its call; RFP signal change, %; measured here: RFP humanized mutant strains;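 first replicate; 0 = DMSO median and -100 = no signal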
The depositor's hits bear a star; i = inactive; ? = inconclusive; . = not tested or not shown; & = joins results of further samples. An excerpt; the hit share may differ from the screen's.

Structure	Calb FLC	T cruzi inh	ALR H2O2 inh	RanGTP-Imp inh	Beta cell apopt	AF4-AF9 inh	rRNA inh HTS	rRNA inh HTS OD600	rRNA inh HTS RFP	FGF22 binding
O=C(c1ccc(Cl)cc1Cl)N1CCC(C(=O)N2CCOCC2)CC1	-14	-5	.	-0.3	-4	-0.2	1	-5	-0.3	i
Cc1ccc(NC(=O)Nc2ccc3c(c2)nc(C)n3C)cc1	31	21	10	?	-8	-0.8	7	-6	-3.5	i
CCOC(=O)Cc1csc(NC(=O)Nc2ccccc2)n1	3	-25	16	0.5	0	.	.	.	.	.
Cc1ccc(-c2csc(N3CCN(c4cc5c(cc4Cl)nc(-c4ccncc4)n5CCOCCO)CC3)n2)cc1	4	44	5	-2.1	-12	.	.	.	.	.
COc1ccc(S(=O)(=O)N(CCCN2CCCC2=O)Cc2cc3c(C)ccc(C)c3[nH]c2=O)cc1	2	8	.	-2.9	7	.	.	.	.	.
O=C(NNC(=O)C1CC1)c1cc(Cl)nc2ccccc12	-3	3	1	-0.6	-6	-1.7	-1	15	3.4	i
Cc1nn(CC(=O)NC2CCCCC2)c(=O)c2cccn12	0	-15	1	1.7	0	1.1	4	10	-2.8	i
Cc1nn(CC(=O)N2CCN(C34CC5CC(CC(C5)C3)C4)CC2)c(C)c1[N+](=O)[O-]	2	6	-1	?	-8	0.7	6	1	-0.8	i
Cc1nnc(NC(=O)C2CCCC2)s1	-3	6	-2	-3.0	-5	-2.5	4	6	3.2	i
C[C@H](CO)N1C[C@H](C)[C@@H](CN(C)Cc2ccc(Cl)c(Cl)c2)Oc2c(NC(=O)c3ccncc3)cccc2C1=O	.	.	-1	.	2	9.2&-7.4	-28&-33	-58&-35	-3.0&2.1	i
O=C(Nc1ccccc1O)c1ccc(Cl)cc1	-4	-8	72	-6.4	-15	.	.	.	.	.
Cc1nc2sc(C(c3cccs3)N3CCN(c4cccc(Cl)c4)CC3)c(O)n2n1 (centres undefined)	-3	10	11	0.0	6	3.6	-25	-74	-15	i
FCCCOc1ccc(-c2nccc(-c3ccc(Cl)cc3)n2)cc1	17	-9	-2	-0.6	-3	.	.	.	.	.
CCOC(=O)CSc1nc(C)cc(C)c1C#N	-11	-11	-27	-1.6	3	.	.	.	.	.
CCOC(=O)Cc1csc(N/C(=N/S(=O)(=O)c2ccc(F)cc2F)c2ccccc2)n1	54	-22	.	-0.7	-4	.	.	.	.	.
CCN(CC(=O)NC(C)C)C(=O)CCNC(=O)c1ccc(Cl)cc1	-4	-2	-5	1.4	-9	.	.	.	.	.
CC1CCN(C(=O)CSc2nnc3ccc(-c4cccnc4)nn23)CC1	-2	2	1	-4.2	-1	5.8	4	11	-0.9	i
CCOC(=O)C1=C(C)NC(C)=C(C(=O)OCC)C1c1ccc(O)cc1	-1	2	-8	2.1	-1	.	.	.	.	.
O=C(Nc1c2c(nn1-c1ccccc1)CS(=O)(=O)C2)c1ccccc1Br	2	-7	-3	2.2	-1	-1.7	21	26	3.1	i
COc1ccc(N(CC(=O)Nc2ccc(C(C)C)cc2)S(=O)(=O)c2c(C)noc2C)cc1	-9	4	-2	0.0	8	-0.7	2	7	2.7	i
O=C(NCCN1CCOCC1)c1cc(Cl)ccc1[N+](=O)[O-]	-12	-12	-13	2.3	-5	.	.	.	.	.
CC(C)[C@H](NC(=O)N1c2ccccc2NC(=O)[C@@H]1C(C)C)C(=O)N[C@@H](Cc1c[nH]c2ccccc12)C(=O)O	-4	2	-8	-0.8	0	-2.5	.	.	.	i
C/C(=N\NC(=O)CSc1nc(C)cc(C)n1)c1ccc2c(c1)OCCO2	-12	7	-9	-1.1	-2	-1.4	-9	-12	2.3	i
COc1ccc(C(=O)CSc2n[nH]c(C)n2)cc1[N+](=O)[O-]	-17	-11	82*	-1.1	.	-1.0	12	7	-2.4	i
COc1ccc(-c2cc3ccccc3s2)cc1[C@H]1[C@H]2C=CC[C@@H](C)[C@@H]2C(=O)N1Cc1ccccc1	9	-18	-3	-2.3	2	-0.1	8	17	2.3	i
Cn1nc(C(F)(F)F)c(C#N)c1N1CCN(c2ccccc2)CC1	-26	2	21	-1.1	-12	.	-34	-48	-5.5	.
CSc1ccccc1NC(=O)CN1c2ccccc2CC1C (centres undefined)	5	2	31	-2.7	2	51*	4	8	2.7	i
O=C(COC(=O)C1CCCN1C(=O)c1cccs1)c1ccccc1 (centres undefined)	-6	-13	9	-1.7	-3	.	.	.	.	.
O=C(c1cccc(Br)c1)c1coc2ccc(O)cc12	.	.	-1	.	3	2.3	0	-29	-5.1	i
O=C(CSc1cccc2cccnc12)Nc1ccc(S(=O)(=O)N2CCOCC2)cc1	1	63*	0	5.6	35	4.8	-4	-7	0.0	i
CCN(CC)S(=O)(=O)c1ccc(S(=O)(=O)N2CCCC(C(=O)NC3CC3)C2)cc1 (centres undefined)	-10	-53	.	2.1	17	-4.5	5	5	1.1	i
CCc1nnc(NC(=O)CSc2nnc(-c3c[nH]c4ccccc34)n2CC)s1	-2	7	-3	-3.5	3	.	.	.	.	.
Cc1nc(-c2coc3cc(C)c(N=O)c(O)c3/c2=N\N)cs1	-4	8	-27	10	-4	-0.7	13	9	0.8	i
COc1ccccc1N1CCN(C2CCCN(Cc3cccc(O)c3)C2)CC1 (centres undefined)	-4	5	28	?	.	8.9	15	12	1.7	i
Cc1cc2nnc(SCC(=O)NCc3cccs3)n2c2ccccc12	15	13	.	-2.8	-1	.	.	.	.	.
Cc1ccc2[nH]ccc(=O)c2c1	-9	-5	3	5.2	-10	2.1	5	12	15	i
CNc1nc2c3ccccc3n(C(C)=O)c2s1	-2	-4	.	-0.5	-3	.	.	.	.	.
Cc1ccccc1-c1nc(CS(=O)(=O)CC(=O)NCCCN2CC(C)CC(C)C2)c(C)o1 (centres undefined)	-7	4	-17	3.0	-1	7.9	-1	3	6.0	i
COc1cccc(NC(=O)Cn2c(=O)n(-c3cc(OC)c(OC)c(OC)c3)c(=O)c3ccccc32)c1	-10	-4	.	-2.4	2	0.1	-5	2	-2.1	i
O=C(O)c1ccc2c(c1)CC(c1ccccc1)OC2=O (centres undefined)	3	-10	-10	0.5	-6	.	.	.	.	.
N#C/C(=N\Nc1ccc(Cl)cc1)C(=N)N1CCCCC1	-4	16	.	1.3	-4	.	.	.	.	.
CCc1ccc(Nc2c([N+](=O)[O-])c(=O)oc3ccccc23)cc1	-22	-12	-8	-1.5	0	0.9	.	.	.	i
O=C(COC(=O)CNC(=O)c1ccccc1Cl)NC1CC1	.	.	-5	.	-5	1.3	10	14	2.3	i
CCOC(=O)C1=C(c2ccccc2)N(C)C(=O)NC1c1ccc(O)c(OC)c1 (centres undefined)	2	-25	21	1.3	0	0.5	0	-5	-1.3	i
CCn1c(SCc2nc(CC(=O)Nc3ccccc3OC)no2)nnc1-c1cccs1	-4	15	-11	1.2	12	.	.	.	.	.
CN(Cc1ccccc1)C(=O)C1CCCN(Cc2cccc(Cl)c2)C1 (centres undefined)	-4	60*	1	-0.4	5	-4.3&-0.3	-1&-1	-2&4	-4.0&-5.0	i
COc1ccc(N2CCN(S(=O)(=O)CCNC(=O)COc3ccccc3OC)CC2)cc1	1	-12	93*	-0.6	6	1.2	-2	-8	2.2	i
COc1ccc(/C=N/Nc2c(Cl)cc(Cl)cc2Cl)cc1CN1CCOCC1	-4	-4	-5	2.3	-8	.	.	.	.	.
COc1ccccc1C(=O)N1CCN=C1c1ccccc1	-5	-11	-7	1.7	-4	.	.	.	.	.
Cc1cc([N+](=O)[O-])nn1CCCC(=O)Nc1ccc(Cl)cc1Cl	-14	-1	-1	-0.4	-5	-2.9	-8	-10	-3.5	i

New compounds follow
Structure	Calb FLC	T cruzi inh	ALR H2O2 inh	RanGTP-Imp inh	Beta cell apopt	AF4-AF9 inh	rRNA inh HTS	rRNA inh HTS OD600	rRNA inh HTS RFP	FGF22 binding
COc1cc(C(=O)N2CCN(Cc3ccc4c(c3)OCO4)CC2)cc(OC)c1OC	-10	7	-9	4.6	0	2.1	0	2	-2.4	i
CC(CC(=O)O)CC(=O)Nc1cc([N+](=O)[O-])ccc1O (centres undefined)	-11	5	-6	?	-11	-2.2	14	14	1.0	.
O=C(COC(=O)/C=C/c1ccc(C(F)(F)F)cc1)NCC1CCCCC1	0	-10	-2	-6.0	-5	-1.3	-6	2	-5.9	i
Cc1nc(SCC(=O)c2c[nH]c3ccccc23)n[nH]1	3	-3	.	4.9	-8	.	.	.	.	.
CCN(Cc1nc2cc(Cl)ccc2c(=O)[nH]1)C(=O)c1ccc(C)c(NC(=O)c2ccco2)c1	.	.	-1	.	2	-0.9	-3	-4	1.0	i
COc1ccc(-c2csc3ncnc(Oc4cccc5ccc(C)nc45)c23)cc1	-2	27	-3	-0.7	-2	-14	7	10	12	i
O=C(Cc1ccccc1Cl)N1CCOCC1	2	-4	-9	-0.4	-2	-0.6	6	6	-0.2	i
Cc1ccc2nc(C3CCN(CC(=O)Nc4ccc5c(c4)OCCO5)CC3)[nH]c2c1	-11	-10	-38	-2.9	-12	.	.	.	.	.
CCCS(=O)(=O)N1CCC(C(=O)NCCCOCC)CC1	-4	-2	-1	-4.9	2	.	.	.	.	.
Cc1c(N2CCCC2)cc2c(c1NC(=O)c1ccccc1Cl)C(C)(C)CC2(C)C	-2	42	-4	1.8	3	3.0	12	8	-1.7	i
C/C(=N\NC(=O)c1cccs1)c1ccc2c(c1)OCO2	-12	-4	-25	4.9	.	-1.6	8	11	0.6	i
CCC(=O)NNc1nc2c(C)cccc2s1	6	-7	13	1.2	-6	-2.0	8	12	0.9	i
COC(=O)c1ccc(CSc2nnc(-c3ccncc3)o2)o1	5	-7	-2	?	-6	.	.	.	.	.
CCN1CCN(C(=O)CN2C(=O)COc3ccc(S(=O)(=O)N4CCOCC4)cc32)CC1	2	-4	-1	5.4	.	0.6	9	10	-0.3	i
COCC(C)n1c(SCc2cc(C(=O)OC)c(C)o2)nc2ccccc2c1=O (centres undefined)	2	-5	-6	0.4	10	1.2	-10	-12	-3.8	i
COc1ccc(-c2nc(C)c(C(C)=O)n2O)cc1[N+](=O)[O-]	52	-7	3	-0.2	4	3.3	-2	0	1.2	i
C/C=C/C(=O)OCC(=O)Nc1cccc(Br)c1	-36	-5	17	7.6	-7	2.7	4	9	-2.3	.
COc1ccc(-c2nc3ccc(C(=O)NCC(OC)OC)cc3nc2-c2ccc(OC)c(OC)c2)cc1OC	4	8	-1	1.5	8	-1.8	8	12	0.8	i
CCc1ccc(OCC2c3cc(OC)c(OC)cc3CCN2C(=S)NC)cc1 (centres undefined)	14	9	.	1.4	-5	3.1	-16	-10	-1.2	i
Cc1cc(/C=C2/SC(=O)N(CC(=O)N3CCOCC3)C2=O)c(C)n1-c1ccccc1F	10	5	4	0.1	0	0.4	-8	-10	-6.0	i
